Assay outcomes as filed in PubChem.
nsP2pro primary: Primary qHTS for inhibitors of NSP2Pro chikungunya virus (CHIKV). Polyprotein P1234 (Chikungunya virus (strain S27-African prototype)), Q8JUX6. FRET peptide cleavage, nsP2pro, fluorescence 1 h. Potency, µM (titrated, usually from 24.9 µM), without a hit: at the highest dose activity change, negative = inhibition, hits mostly inhibitors. 1.1% of 31,000 active. AID 1964107, 2024; active means well fitted inhibition curve with a large enough effect; inconclusive means small, poorly fitted or top-dose-only effect; inactive means no such curve, though single readings can be large or run the other way; further: nearly all actives have a fitted effect of over 60% in size; a reference inhibitor and vehicle were the controls
Target sequence (Q8JUX6 whole entry, looked up): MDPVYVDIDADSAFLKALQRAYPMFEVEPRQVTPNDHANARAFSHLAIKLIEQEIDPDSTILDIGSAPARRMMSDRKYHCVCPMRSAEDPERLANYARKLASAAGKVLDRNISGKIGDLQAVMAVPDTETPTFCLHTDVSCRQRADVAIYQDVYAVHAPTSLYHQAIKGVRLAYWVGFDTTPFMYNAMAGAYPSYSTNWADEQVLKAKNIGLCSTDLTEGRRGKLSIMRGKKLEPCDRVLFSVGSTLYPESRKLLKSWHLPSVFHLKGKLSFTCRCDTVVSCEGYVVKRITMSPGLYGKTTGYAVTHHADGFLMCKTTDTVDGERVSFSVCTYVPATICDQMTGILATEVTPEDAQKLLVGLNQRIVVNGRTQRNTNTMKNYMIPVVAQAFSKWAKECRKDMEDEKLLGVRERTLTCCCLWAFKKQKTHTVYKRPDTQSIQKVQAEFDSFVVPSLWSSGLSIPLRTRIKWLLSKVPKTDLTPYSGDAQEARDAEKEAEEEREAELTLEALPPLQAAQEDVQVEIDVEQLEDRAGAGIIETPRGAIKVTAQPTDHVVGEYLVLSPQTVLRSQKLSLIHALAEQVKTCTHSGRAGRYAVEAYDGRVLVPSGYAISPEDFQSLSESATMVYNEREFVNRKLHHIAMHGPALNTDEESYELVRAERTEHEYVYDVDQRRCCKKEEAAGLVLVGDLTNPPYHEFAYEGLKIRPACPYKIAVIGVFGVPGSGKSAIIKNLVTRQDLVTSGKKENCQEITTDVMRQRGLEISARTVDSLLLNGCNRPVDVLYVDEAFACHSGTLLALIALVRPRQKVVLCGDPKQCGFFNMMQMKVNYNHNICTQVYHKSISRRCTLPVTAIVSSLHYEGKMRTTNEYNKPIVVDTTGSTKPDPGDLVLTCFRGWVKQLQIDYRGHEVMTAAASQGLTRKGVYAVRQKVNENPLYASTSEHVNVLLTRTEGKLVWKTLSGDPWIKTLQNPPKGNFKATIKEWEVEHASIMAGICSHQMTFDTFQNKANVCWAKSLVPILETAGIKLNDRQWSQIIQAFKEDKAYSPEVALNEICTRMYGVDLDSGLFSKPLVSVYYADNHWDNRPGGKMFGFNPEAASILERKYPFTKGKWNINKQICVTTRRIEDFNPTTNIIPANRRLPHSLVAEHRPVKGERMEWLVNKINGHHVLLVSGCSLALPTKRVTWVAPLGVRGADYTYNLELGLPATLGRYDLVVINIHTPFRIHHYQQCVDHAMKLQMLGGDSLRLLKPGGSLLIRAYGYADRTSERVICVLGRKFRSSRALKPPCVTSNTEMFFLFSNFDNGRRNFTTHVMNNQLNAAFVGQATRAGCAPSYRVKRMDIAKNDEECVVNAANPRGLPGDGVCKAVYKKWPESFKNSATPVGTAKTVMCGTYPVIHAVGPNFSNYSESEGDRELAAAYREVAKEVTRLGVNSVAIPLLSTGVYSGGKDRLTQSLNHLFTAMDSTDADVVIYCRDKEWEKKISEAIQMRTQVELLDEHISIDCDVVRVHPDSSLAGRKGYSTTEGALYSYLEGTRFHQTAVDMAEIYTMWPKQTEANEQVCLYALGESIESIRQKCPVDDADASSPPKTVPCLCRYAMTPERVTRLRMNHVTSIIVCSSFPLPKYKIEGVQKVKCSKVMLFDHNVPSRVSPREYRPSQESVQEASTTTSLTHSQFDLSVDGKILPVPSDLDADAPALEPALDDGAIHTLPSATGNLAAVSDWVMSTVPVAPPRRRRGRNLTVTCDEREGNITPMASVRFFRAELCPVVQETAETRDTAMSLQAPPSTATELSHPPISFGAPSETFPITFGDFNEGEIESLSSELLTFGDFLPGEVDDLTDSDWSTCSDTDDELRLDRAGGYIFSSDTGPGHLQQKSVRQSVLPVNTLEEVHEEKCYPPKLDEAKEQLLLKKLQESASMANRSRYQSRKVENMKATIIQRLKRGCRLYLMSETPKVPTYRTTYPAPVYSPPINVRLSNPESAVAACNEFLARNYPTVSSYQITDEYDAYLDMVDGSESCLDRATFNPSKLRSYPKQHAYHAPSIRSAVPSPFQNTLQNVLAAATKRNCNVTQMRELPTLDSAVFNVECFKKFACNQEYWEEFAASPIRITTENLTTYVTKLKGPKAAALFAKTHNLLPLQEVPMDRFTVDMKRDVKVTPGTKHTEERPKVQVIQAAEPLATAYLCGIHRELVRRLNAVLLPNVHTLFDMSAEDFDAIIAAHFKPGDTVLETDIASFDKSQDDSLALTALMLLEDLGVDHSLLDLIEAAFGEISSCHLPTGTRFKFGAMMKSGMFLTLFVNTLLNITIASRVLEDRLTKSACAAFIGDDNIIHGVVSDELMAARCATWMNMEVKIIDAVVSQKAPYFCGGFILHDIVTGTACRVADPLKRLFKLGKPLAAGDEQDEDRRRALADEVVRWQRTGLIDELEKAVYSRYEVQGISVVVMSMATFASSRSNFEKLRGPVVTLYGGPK
* = called active by the depositor; i = inactive; ? = inconclusive; & = joins results of further samples; [ ] = remark or other dose. On the % scale 0 is the no-effect control and ±100 the full control effect; potency means the concentration at half of the fitted maximal effect. Not all compounds are listed (hit frequency here may not be typical).

SMILES	nsP2pro primary
COc1ccc(-c2cc(C(=O)NCC3CC3)c3c(C4CCNC4)noc3n2)cc1 (stereo unspecified)	?
Cc1ccc(OCC(=O)OC2=C(C(=O)c3ccccc3)N(C)S(=O)(=O)c3ccccc32)cc1	-25%
O=S(=O)(N[C@H]1[C@H](O)[C@H](O)C[C@@H]1c1ccc(C(F)(F)F)nc1)c1ccc(Cl)cc1	-10%
O=C1CC2(CCN(C(=O)c3ccc(Cl)cc3)CC2)Oc2cc(Cl)ccc21	-11%
CC[C@H](NC(=O)[C@H](CS(=O)(=O)CC1CC1)N[C@@H](c1ccc(F)cc1)C(F)(F)F)C(=O)C(=O)NC1CC1	4%
COC(=O)c1ccccc1NC(=O)CSc1nc2sc3c(c2c(=O)[nH]1)CCCC3	10µM*
C=C1C(=O)OC2C1C(O)CC1(C)C(O)CCC(C=O)C21 (stereo unspecified)	?
CC(C)c1cc2c(c(O)c1O)[C@@]13CCCC(C)(C)C1[C@@H](O)[C@@H]2OC3=O (stereo partly specified)	6.1µM*
COc1ccccc1NC(=O)C1=C(C)Nc2ncnn2C1c1ccccc1C(=O)O (stereo unspecified)	-15%
O=C(Cc1nnc(-c2cc3ccccc3[nH]2)o1)Nc1cc(C(F)(F)F)ccc1Cl	i
CC(=O)N1c2ccc(S(=O)(=O)Nc3ccc(C)c(Cl)c3)cc2CC1C (stereo unspecified)	-13%
Cc1cc2c(s1)c1cnn(Cc3c(F)ccc(Cl)c3F)c(=O)c1n2C	-6%
COc1ccc(NC(=O)CN(c2ccc(C)cc2)S(=O)(=O)c2cccc3nonc23)cc1OC	-15%
COc1ccc(-c2ccc3n(c2=O)C[C@H]2C[C@@H]3CN(S(C)(=O)=O)C2)cc1	?
Cc1cccc(C2CCCN(C(=O)c3cn(CCc4ccccc4)nn3)C2)c1 (stereo unspecified)	i
CC(=O)OC[C@]12[C@H](OC(C)=O)C(=O)[C@@H]3[C@@H](OC(C)=O)[C@@]14O[C@@]3(C)COC(=O)c1cccnc1[C@@H](C)[C@H](C)C(=O)O[C@@H]([C@H](O)[C@@H]2OC(C)=O)[C@]4(C)O	8%[10 µM]
C=C1CC2C3(C)C(OC(C)=O)CC(=O)OC(C)(C)C3C(O)C(OC(C)=O)C2(C)C2C(=O)OC(C)C(=O)C12C (stereo unspecified)	-14%[10 µM]
O=C(OCC#CCSc1nnc(-c2cccc3ccccc23)o1)C1CCC1	-6%
CCn1c(C)c(C)c2cc(C(=O)NCc3ccc(F)cc3)ccc21	-10%
O=[S+]1([O-])NC2(CCN(Cc3ccncc3)CC2)CNc2ccccc21	-8%
CC(C)Cc1nc2nccc(-c3ccsc3)n2n1	-2%
CN1CCC(N[C@@H]2CCC[C@@H](C(=O)NC3CC3)CC(=O)N(C)C2)CC1	2%[39.2 µM]
C=CC(C)(O)CC/C=C(\C)C(=O)O[C@@H]1[C@@H](O)[C@H](OC(C)(C=C)CC/C=C(\C)C(=O)O)O[C@H](CO)[C@H]1OC(=O)/C(C)=C/CCC(C)(O)C=C (stereo partly specified)	-18%[10 µM]
CCCC(=O)O[C@]1(C(=O)CC)CC[C@H]2[C@@H]3CCC4=CC(=O)CC[C@]4(C)[C@H]3[C@@H](O)C[C@@]21C	-4%
CC1CCN(S(=O)(=O)c2ccc3c(c2)CCN3)CC1	-14%

Grouped by structure, the entries above containing a thiophene ring, fused or not.
SMILES	nsP2pro primary
COC(=O)c1ccccc1NC(=O)CSc1nc2sc3c(c2c(=O)[nH]1)CCCC3	10µM*
Cc1cc2c(s1)c1cnn(Cc3c(F)ccc(Cl)c3F)c(=O)c1n2C	-6%
CC(C)Cc1nc2nccc(-c3ccsc3)n2n1	-2%

Part of the list above, with bars between the fields.
SMILES | nsP2pro primary
CC[C@H](NC(=O)[C@H](CS(=O)(=O)CC1CC1)N[C@@H](c1ccc(F)cc1)C(F)(F)F)C(=O)C(=O)NC1CC1 | 4%
COc1ccc(-c2ccc3n(c2=O)C[C@H]2C[C@@H]3CN(S(C)(=O)=O)C2)cc1 | ?

(next part)
SMILES	nsP2pro primary
COCCOc1ccc(-c2noc([C@@H]3CCCN3C3CCCCC3)n2)cn1	i
CCOCCCNC(=O)c1c(NC(=O)Cc2coc3c(C)c(C)ccc23)sc2c1CCC2	-16%
C=CC(=O)Nc1ccc2ncnc(Nc3cccc(Br)c3)c2c1	39%
COc1cc(C[C@@]2(O)CO[C@@H](c3ccc(O[C@@H]4O[C@H](CO)[C@@H](O)[C@H](O)[C@H]4O)c(OC)c3)[C@H]2CO)ccc1O	8%[10 µM]
CC(=O)c1c(C)cc(O[C@@H]2O[C@H](CO)[C@@H](O)[C@H](O)[C@H]2O)cc1O	2%
CCCCN(C)C(=O)Cn1nc(-c2ccc(C(F)(F)F)cc2)ccc1=O	-2%
CN(CC(=O)N(Cc1ccc(C2CCCCC2)cc1)c1ccc(C(=O)O)cc1)S(=O)(=O)c1c(F)c(F)c(F)c(F)c1F	124%[activator]
N#Cc1c(-c2ccccc2)no[n+]1[O-]	-3%
O=C(Nc1ccc(N2CCC(c3ccccc3)C2)c(C(=O)O)c1)c1ccc(Cl)cc1 (stereo unspecified)	3.5µM*
O=C(Nc1nc(-c2ccccc2)cs1)c1ccncc1NS(=O)(=O)c1cccs1	1%
Cc1ccc(CNC(=O)c2cc(-c3ccc(C)cc3)nc3n[nH]c(-c4cccc([N+](=O)[O-])c4)c23)cc1	-8%
Cc1cccc(NC(=O)CSc2nnc3scc(-c4ccccc4)n23)c1	-12%
COc1ccc(Cl)cc1NC(=O)CCC1CCCN(C(=O)CCc2scnc2C)C1 (stereo unspecified)	i
Cc1ccc(-c2ccc(=O)n(CC(=O)NCCCc3ccccn3)n2)cc1	0%
Nc1ccc(-c2cnc(N)c(-c3ccc(Cl)cc3)c2)cn1	-2%
CCN(c1ccc(C)cc1)S(=O)(=O)c1nnc(NC(=O)c2cccs2)s1	-10%
CC(C)c1ccccc1-c1ncc(F)c(NC2(c3ccc(-c4cccnc4)cc3)CC2)n1	0%&-2%
O=C([C@H]1C[C@H](Oc2cccnc2)CN1C(=O)c1ccc2ccccc2n1)N1CCOCC1	-1%
COc1ccc(S(N)(=O)=O)cc1C(=O)N1CCC2(CN(C)C(=O)O2)C1 (stereo unspecified)	i
Cc1ccc(N(CC(=O)N2CCN(c3cccc(C)c3C)CC2)S(=O)(=O)c2c(C)nn(C)c2C)cc1	-9%
COC(=O)C(Cc1c[nH]c2ccccc12)NC(=O)COc1ccc(Cl)cc1Cl (stereo unspecified)	-14%
O=C(N[C@H](c1ccccn1)C1CC(O)C1)c1ccc(Cn2cccn2)o1 (stereo partly specified)	-11%
CCc1ccc(CN2CCc3nc(N4CCN(CC)CC4)ncc3C2)cc1	23%
O=C(Oc1ccc([N+](=O)[O-])cc1)N1CCN(Cc2cccc(Oc3ccccc3)c2)CC1	-11%
O=C(NCc1cccs1)c1ccc(CSc2nc3cccnc3n2Cc2ccccc2)cc1	16%

7 compounds drawn at random from the list so far:
SMILES	nsP2pro primary
CC(C)Cc1nc2nccc(-c3ccsc3)n2n1	-2%
CC1CCN(S(=O)(=O)c2ccc3c(c2)CCN3)CC1	-14%
Cc1ccc(OCC(=O)OC2=C(C(=O)c3ccccc3)N(C)S(=O)(=O)c3ccccc32)cc1	-25%
COc1ccccc1NC(=O)C1=C(C)Nc2ncnn2C1c1ccccc1C(=O)O (stereo unspecified)	-15%
CC(=O)OC[C@]12[C@H](OC(C)=O)C(=O)[C@@H]3[C@@H](OC(C)=O)[C@@]14O[C@@]3(C)COC(=O)c1cccnc1[C@@H](C)[C@H](C)C(=O)O[C@@H]([C@H](O)[C@@H]2OC(C)=O)[C@]4(C)O	8%[10 µM]
O=[S+]1([O-])NC2(CCN(Cc3ccncc3)CC2)CNc2ccccc21	-8%
CC(=O)c1c(C)cc(O[C@@H]2O[C@H](CO)[C@@H](O)[C@H](O)[C@H]2O)cc1O	2%

Next section:
SMILES	nsP2pro primary
CC1(c2noc(-c3cccnc3)n2)CCN(C(=O)CCC(=O)n2ncc3c(Cl)cccc32)CC1	1%
CCCCCC1CC1CC1CC1CCCCCCCC(=O)O (stereo unspecified)	54%[10 µM]
COc1ccc(-c2nc3ccccc3c(=O)n2Cc2ccccc2)cc1COc1ccc(NC(C)=O)cc1	i
CNC(=O)c1cc[nH]c1C1CCCN(Cc2ccc3c(c2)CCO3)C1 (stereo unspecified)	3%
CC(=O)N1CC[C@H](c2nc3ccc(C#N)cc3[nH]2)C1	?
CCn1cc(C(=O)N2CCN(c3ccccc3F)CC2)c(=O)c2cc(S(=O)(=O)N(C)C3CCCCC3)ccc21	-20%
COc1cccc(-c2ccc(C(=O)NCCN[S+](=O)([O-])c3cccs3)cc2)c1	i
Cc1noc(C)c1S(=O)(=O)N1CCC(C(=O)N2CCN(c3ccccc3)CC2)CC1	-17%
CN1CCCC(c2nc(CCOCC3CCCC3)no2)C1 (stereo unspecified)	2%
CCc1noc([C@@H]2CC(F)(F)CN2C(=O)c2cocn2)n1	i
COc1ccc(C(C)=O)cc1CSc1nc(NCc2ccc(Cl)cc2)c2ccccc2n1	-9%
O=C(O)c1ccc2c(c1)C(=O)N([C@H](Cc1ccc(C(F)(F)F)cc1)C(=O)O)C2=O	-25%
CCCOc1ccc(-c2nc3ccccc3c(=O)o2)cc1	-22%
CCN(CC)C(=O)[C@@H]1CCC[C@@H](NC2CCOCC2)CN(C)C(=O)C1	i
Cc1cc(=O)oc2cc(CN(C)CC(C)N3CCOCC3)ccc12 (stereo unspecified)	-10%
FC(F)(F)c1ccc(-c2noc([C@@H]3Cc4nc[nH]c4CN3Cc3cc4ccccc4o3)n2)cc1	i
C=CCNC(=O)N[C@H]1C[C@H]2C(=O)Nc3ccc(/C=C/c4ccc(OC)cc4)cc3C(=O)N2C1	-2%
OC(c1ccccc1)c1nc(Nc2ccc3c(c2)OCO3)n[nH]1 (stereo unspecified)	?
O=Cc1nc(Nc2cc(F)cc(F)c2)nc(NC2CCCC2)n1	i
O=[S+]([O-])(c1cccs1)N1CCCN(c2nc3ncccc3o2)CC1	2%
Cc1cc(N2CCN([C@@H]3CN[C@H](C(=O)N4CCSC4)C3)CC2)n(-c2ccccc2)n1	10%&-1%&18%
O=c1cc2nc(-c3ccccc3F)nc(SCc3ccc(Br)cc3)n2[nH]1	-5%
CCc1ccccc1NC(=O)N1C[C@@H](F)C[C@H]1C(=O)N1CCc2ccccc2C1	-9%
COC(=O)CNC(=O)C1CCN(S(=O)(=O)c2cccc3nsnc23)CC1	-27%
COc1cc(/C=C/C(=O)OC(C)(C)C(OC2OC(CO)C(O)C(O)C2O)C(=O)OCc2ccc(OC3OC(CO)C(O)C(O)C3O)cc2)ccc1O (stereo unspecified)	-14%[10 µM]
SMILES	nsP2pro primary
O=C(Cc1cccc(Cl)c1)N1CCC2(CN[S+](=O)([O-])c3cccnc3O2)C1 (stereo unspecified)	-1%
CC(C(=O)NCc1ccccc1Cl)n1ccc2cc(S(=O)(=O)N3CCCCC3)ccc21 (stereo unspecified)	-24%
COc1cc(OC)cc(-c2nnc3n2N=C(c2c(OC)cccc2OC)CS3)c1	i
O=C(/C=C/c1cccnc1)c1ccncc1	26%
CCCCn1c(=NC(=O)C(C)(C)Oc2ccc(Cl)cc2)c(C(=O)OCC)cc2c(=O)n3ccccc3nc21	-20%
C=C1C(=O)OC2/C=C(\COO)CC/C=C(\COC(C)=O)CC(OC(=O)C(C)CC)C12 (stereo unspecified)	3%[10 µM]
COc1cc(NC(=O)c2nc3cc(C)c(C)cc3n(C)c2=O)cc(OC)c1OC	-21%
COc1ccc(CN2CCc3c(c(=O)n4ncc(C(=O)N5CCN(c6ccc(F)cc6)CC5)c4n3C)C2)cc1	-6%
CC(C)NC(=O)NC[C@H]1C[C@@H]2CCN1C[C@@H]2CN1CCC(Cc2ccccc2)CC1	2%[39.2 µM]
CNS(=O)(=O)c1ccc(Cc2c(-c3cccc(-c4ccccc4)c3)[nH]n(-c3nc(C(=O)O)cs3)c2=O)cc1	3%
O=C(O)c1cc(C(F)(F)F)ccc1N1CC[C@H](OCc2ccccn2)C1	-11%&11%
CCOC(=O)CCn1cnc2onc(-c3cc(OC)ccc3Cl)c2c1=O	-19%
CCS(=O)(=O)N1CCc2cc(C(=O)NCc3ccc(OC)cc3)ccc21	-18%
COc1cc(OC)c(Nc2cc(C)nc3ncnn23)cc1Cl	-16%
Cc1[nH]cnc1C[C@H]1CCc2c(C)c3ccccc3n2C1=O	?
CN(C)CCn1nnnc1SCC1=C(C(=O)O)N2C(=O)[C@@H](NC(=O)Cc3csc(N)n3)[C@H]2SC1	?
Oc1ccc(CNc2cccnc2)c2cccnc12	?
CCN(CC)CC(=O)N1CCC(Oc2ccccc2C)(C(=O)O)CC1	1%
CN1C[C@H]2CN(C(=O)c3ccc(C(F)(F)F)cc3)CCN2C1=O	-11%[39.2 µM]
Cn1nc(-c2ccc(F)cc2)cc1[C@H]1CN2CC[C@H]1C[C@@H]2CNC(=O)c1cccs1	4%[39.2 µM]
C=C(CCO[C@@H]1O[C@H](CO)[C@@H](O)[C@H](O)[C@H]1O)C(=O)O	?
Cc1noc(C)c1Cc1ccc(C(=O)N2CC(N(C)Cc3cccnc3)C2)o1	-14%
Cc1c(Cl)cccc1NC(=O)NCCOCCn1c(=O)oc2ccccc21	-17%
CCOc1ccccc1NC(=O)c1c(NC(=O)c2ccccc2C)sc2c1CCC(C)C2 (stereo unspecified)	-23%
CCN(CC)CCNC(=O)CN1C(=O)c2cccnc2Oc2ccc(C)cc21	-19%
SMILES	nsP2pro primary
CCOC(=O)c1sc2ccccc2c1S(=O)(=O)N1CCN(c2cccc(OC)c2)CC1	-4%
COc1ccc(CNS(=O)(=O)c2ccc3c(c2)NC(=O)C(C)C(=O)N3)cc1 (stereo unspecified)	-18%
COc1ccc(C[C@H](NC(=O)[C@H](C)NC(=O)CN2CCOCC2)C(=O)N[C@@H](Cc2ccccc2)C(=O)[C@@]2(C)CO2)cc1	?
CC(NC(=O)CCCC1=NS(=O)(=O)c2ccccc2N1)c1ccccc1 (stereo unspecified)	-16%
Cc1cccc(NC(=O)NCCn2c(=O)oc3ccc(C)cc32)c1	0%
Clc1ccc2c(c1)N=C(N1CCNCC1)c1ccccc1N2	2%
